From PubChem BioAssay
Vaccinia Venus – inhibitors of vaccinia virus (Venus reporter); Vaccinia virus Venus reporter expression, fluorescence; AID 720580; Potency, µM (highest dose often 36.5 µM), without a hit: top-dose activity change, negative = inhibition, most hits filed as inhibitors; hit rate 0.46% among 330,000; active means well fitted inhibition curve with a large enough effect; inconclusive means small, poorly fitted or top-dose-only effect; inactive means no such curve, though single readings can be large or run the other way; tested in A549 cells; note: nearly all actives have a fitted effect of over 30% in size; inactives centre near -10
Vaccinia mCherry – vaccinia inhibition (mCherry reporter). Potency, µM (top dose mostly 36.5 µM), for the others: top-dose activity change, negative = inhibition, actives largely listed as inhibitors. hit rate 0.63% among 310,000. Vaccinia virus mCherry reporter infection, fluorescence; about a quarter of the inactives have no number; active = well fitted inhibition curve with a large enough effect; inconclusive = small, poorly fitted or top-dose-only effect; inactive = no such curve, though single readings can be large or run the other way; tested in A549 cells; note: nearly all actives have a fitted effect of over 35% in size; inactives centre near -10
The depositor's hits bear a star; i = inactive; ? = inconclusive; / = no result given; & = joins results of further samples; [ ] = remark or other dose. % is set by controls: 0 for no effect and ±100 for the full control effect; potency is the fitted concentration of half-maximal effect.

SMILES	Vaccinia Venus	Vaccinia mCherry
CC(C)CC(OC(=O)c1ccco1)C(=O)NCC1CCCO1 (configuration not stated)	-7%	-7%
CC(=O)N1[C@H](Cc2ccccc2)C=C[C@]1(C)C(=O)NCc1ccccn1	-14%	i
CCOc1ccccc1CN(CCc1ccc2c(c1)OCO2)Cc1ccccn1	-14%	/
Cc1cc(Nc2ccc(Cl)cc2)n(-c2ccccc2)n1	-35%	/
Cc1ccc(/C=N/NC(=O)c2ccncc2)o1	-4%	i
ON=C1CCCC2CCCCC12 (configuration not stated)	-3%	i
Cc1ccccc1NC(=O)c1cc([N+](=O)[O-])ccc1NCCN1C(=O)CCC1=O	-11%	i
CC(=O)OCc1cc2cccc(C)c2[nH]c1=O	5%	-6%
O=C(CCCCn1c(=O)[nH]c2ccccc2c1=O)NCCc1c[nH]c2ccccc12	-21%	i
CCOC(=O)[C@]12CCC=C1N(Cc1ccc3c(c1)OCO3)C(=O)[C@H](CC(=O)NCc1cccs1)C2	-12%	-12%
O=C1CC[C@@H](OCc2ccccc2)CCN1CC[C@H](Sc1ccccc1)c1ccccc1	-11%&-10%	i
O=c1[nH]c(/C=C/c2cccc(Br)c2)nc2ccccc12	-6%	-6%
Cc1cccc(C(O)C(O)c2cccc(C)n2)n1 (configuration not stated)	-7%	i
COc1ccc(-c2cc(C3CCN(C(=O)OC(C)(C)C)CC3)[nH]n2)cc1	-9%	-6%
C[C@@H](NC(=O)[C@@H]1CCCN1C(=O)OC(C)(C)C)c1ccccc1	-7%	-1%
COc1ccc(C(CNC(=O)c2ccc(S(=O)(=O)N3CC(C)CC(C)C3)cc2)N(C)C)cc1 (configuration not stated)	?	?
CCOC(=O)CN1C(=O)N[C@@H](c2cccs2)C(C(C)=O)=C1C	0%	i
CC(C)NC1CS(=O)(=O)CC1O (configuration not stated)	-14%	-1%
CCOC(=O)C1CCCN(C(=O)/C=C/c2ccccc2[N+](=O)[O-])C1 (configuration not stated)	-4%	-12%
O=C(Cn1nc(C(=O)O)c2ccccc2c1=O)NCCC1=CCCCC1	-5%	-16%
CCOc1c2ccc(C(=O)NCc3ccco3)cc2nn1CCOC	-10%	-15%
O=C(CSc1ncn[nH]1)Nc1c(F)cc(F)cc1Br	0%	-10%
COc1ccc([C@@]2(O)c3c(ccc(CC=C(C)C)c3O)NC(=O)[C@@H]2OC)cc1	-1%	1%
Cc1cccc(CNS(=O)(=O)c2ccc(-c3cnc(C4CC4)o3)cc2)c1	0%[7.34 µM]	-10%
O=C(Nc1ccccn1)c1cccc(S(=O)(=O)N2CCCC2)c1	-9%	i

Arranged by molar mass (lowest first): some entries from above.
SMILES	Vaccinia Venus	Vaccinia mCherry
CC(=O)N1[C@H](Cc2ccccc2)C=C[C@]1(C)C(=O)NCc1ccccn1	-14%	i
Cc1ccccc1NC(=O)c1cc([N+](=O)[O-])ccc1NCCN1C(=O)CCC1=O	-11%	i
O=C1CC[C@@H](OCc2ccccc2)CCN1CC[C@H](Sc1ccccc1)c1ccccc1	-11%&-10%	i

(next part)
SMILES	Vaccinia Venus	Vaccinia mCherry
Cc1ccc2cc(/C=N/NC(=O)[C@@H]3CCCN3)c(Cl)nc2c1	-9%	i
Cc1ccc(O)c(NC(=S)NC(=O)/C=C/c2ccco2)c1	-13%	-19%
O=C1OCCN1C(=O)[C@H]1[C@H](c2ccc([N+](=O)[O-])cc2)C(c2cccc(Cl)c2)=NN1c1ccccc1	-22%	-13%
Cc1ccc(C(=O)Nc2cccc3cccnc23)cc1C	-12%	i
O=C(c1ccco1)N1CCN(C(=O)c2cn(-c3ccccc3)nc2-c2ccc(F)cc2)CC1	-21%	-11%
COC(=O)c1sc(NC(=O)CSc2nnnn2-c2ccc(C)cc2C)nc1C	10%	7%
CC1CCC(N(C)C(=O)CN2C(=O)NC(c3ccccc3)(c3ccccc3)C2=O)CC1 (configuration not stated)	-23%	i
CC(C1CC1)N(Cc1ccccc1)C(=O)NC(=O)c1ccc(F)cc1 (configuration not stated)	-26%	-3%
CC(Sc1nnc(CN2CCCC2)n1Cc1ccccc1)C(=O)Nc1ccc(F)cc1Cl (configuration not stated)	-11%	-9%
CCSC1(SCC)N=C(N)C2(C#N)C(c3ccccc3)NC(C)=C(C)C12C#N (configuration not stated)	-1%	/
O=C(Cc1nn[nH]n1)Nc1ccc(F)cc1F	-4%[7.34 µM]	-2%[7.34 µM]
CCc1cccc(OCC(=O)Nc2ccc(S(=O)(=O)N3CCCC3)cc2)c1	-16%	?
COc1cc(C2OCC3C(c4cc(OC)c(OC)c(OC)c4)OCC23)cc(OC)c1OC (configuration not stated)	-1%	4%
O=c1cc(N2CCOCC2)[nH]c(=O)n1-c1ccc(Br)cc1	-2%	i
CN1CCN(S(=O)(=O)c2cccc(C#N)c2)C(c2ccccc2)C1 (configuration not stated)	-13%	-15%
O=C1Nc2ccccc2C12Nc1ccccc1-c1nc3ccccc3n12 (configuration not stated)	0%	/
COc1ccc(CN2C(=O)CCC2(C)C(=O)NC2CCCC2)c(OC)c1 (configuration not stated)	-11%	-9%
Cc1onc(-c2ccccc2)c1C(=O)Nc1nc2c(s1)C(=O)CC(C)(C)C2	-1%	-9%
CC(C)C#Cc1cnc2c(c1)C(=O)N([C@@H](C)CO)C[C@@H](C)[C@H](CN(C)Cc1cccc(F)c1)O2	-25%	-7%
Cc1ccc(S(=O)(=O)c2nc(Nc3ccccc3C#N)sc2Cl)cc1	3%	-16%
Cc1ccc(NC(=O)C2CCC(CNS(=O)(=O)c3cccs3)CC2)cc1C (configuration not stated)	-13%	-10%
CC(=O)c1ccc(OCC(O)CN2CCN(CC(O)COc3ccc(C(C)=O)cc3)CC2)cc1 (configuration not stated)	1%	/
O=C(Nc1ccccc1)c1ccccc1CC[N+](=O)[O-]	-19%	/
CCOc1cc(N2CCOCC2)c(OCC)cc1NC(=O)COC(=O)COc1cc(C)cc(C)c1	-5%	-14%
O=C(Nc1ccccc1Cl)C1C2CCC3C(CCC21)C3(Cl)Cl (configuration not stated)	-5%	-9%
Next part.
SMILES	Vaccinia Venus	Vaccinia mCherry
COc1ccc(S(=O)(=O)N2CCCCC2c2cc(C(=O)NCc3cccnc3)no2)cc1 (configuration not stated)	1%	7%
CCCn1c(NCCO)nc2ccccc21	-26%	i
COCCCNc1ccn2nc(-c3ccccc3)cc2n1	-2%	i
O=C(O)CSCCOc1ccc(OCCSCC(=O)O)cc1	-3%	-13%
O=C(NCc1ccc2c(c1)OCO2)c1ccc(CSCc2cccc(Cl)c2)o1	-10%	i
Cc1ccccc1-c1cc(C(=O)NCC2CC2)nn1CC1CC(c2cccc([N+](=O)[O-])c2)=NO1 (configuration not stated)	-14%	-29%
COCCNC(=O)c1ccc(-c2nc(CN3CCc4ccccc43)c(C)o2)cc1	7%	-5%
O=C(CC1SC(N2CCOCC2)=NC1=O)Nc1ccc(F)cc1 (configuration not stated)	-4%	-13%
CN(CC(=O)NC(=O)Nc1ccccc1F)Cc1ccccc1	-15%	-17%
CCOc1ccc(CNc2ccc3c(c2)nc(C)n3C)cc1	-12%	/
O=C(Cc1ccccc1)N1CCN(Cc2cccc(Br)c2)CC1	-11%	?
COc1cccc(C(=O)Nc2cc3c(cc2Br)OCCCO3)c1	-15%	-13%
CCc1cccc(C)c1NC(=O)c1cc(S(=O)(=O)N(Cc2ccc(C(=O)OC)cc2)Cc2ccc(OC)c(OC)c2)ccc1F	-5%	-18%
CC(=O)C1(O)CCC2C3CC(C)C4=CC(=O)C=CC4(C)C3(F)C(O)CC21C (configuration not stated)	-3%	i
N=c1sccn1CC(=O)N1N=C(c2ccc(Cl)cc2)CC1c1ccco1 (configuration not stated)	-15%	-17%
Cc1ccc(S(=O)(=O)N2CCN(c3cnn(C)c(=O)c3Cl)CC2)cc1	0%	-6%
COC(=O)c1sccc1NC(=O)Nc1cc(C)ccc1C	-16%	-4%
CC(C)c1nn2c(=O)cc(COC(=O)COc3ccccc3F)nc2s1	3%	-1%
CC(=O)c1ccc(NC(=O)[C@@H]2CCCN2C(=O)OC(C)(C)C)cc1	-10%	-11%
Cc1cc(/C=C\c2nc(O)c([N+](=O)[O-])c(=O)[nH]2)c(C)n1-c1ccccc1	-8%	-3%
COc1ccc(N2CC(NC(=O)c3ccc(S(=O)(=O)N4CCCC4)cc3)CC2=O)cc1 (configuration not stated)	-23%	-18%
Cc1cc(C)c(S(=O)(=O)NCC(c2ccco2)N2CCOCC2)c(C)c1 (configuration not stated)	5%	-13%
CCOc1ccc2nc(NC(=O)C3=NN(c4ccccc4)C(=O)CC3)sc2c1	-14%	-5%
CC1(C(=O)O)CCCN(C(=O)c2cc3ccccc3s2)C1 (configuration not stated)	2%	8%
Cc1cccc(COCC(CC(C)C)N2CCN(C(=O)c3ccc(C(C)(C)C)cc3)CCC2=O)c1 (configuration not stated)	?	?

A different layout for part of the listing above.
Structure | Vaccinia Venus | Vaccinia mCherry
Cc1ccc(S(=O)(=O)N2CCN(c3cnn(C)c(=O)c3Cl)CC2)cc1 | 0% | -6%
COC(=O)c1sccc1NC(=O)Nc1cc(C)ccc1C | -16% | -4%
CC(C)c1nn2c(=O)cc(COC(=O)COc3ccccc3F)nc2s1 | 3% | -1%

(list continues)
SMILES	Vaccinia Venus	Vaccinia mCherry
Cc1c(NC(=O)Nc2ccccc2[N+](=O)[O-])c(=O)n(-c2ccccc2)n1C	-9%	-12%
CC(C)(C(N)=O)c1ccccc1	-1%	-11%
O=C(/C=C/c1ccc([N+](=O)[O-])s1)N1CCCC1	13µM*	?
Cc1ccc([C@H]2N[C@]3(CCCN(Cc4ccc(Cl)cc4)C3=O)[C@H]3C(=O)N(C)C(=O)[C@@H]23)cc1	-21%	?
CCOC(=O)N1CCN(c2ccc(C(=O)c3ccccc3)cc2F)CC1	-22%	-6%
COC(=O)N1N=C(c2ccc(Br)cc2)CC1(O)C(F)(F)F (configuration not stated)	-13%	-11%
CCOc1ccc2nc(N3CCCC(C(=O)NCCc4ccc(OC)cc4OC)C3)sc2c1 (configuration not stated)	-5%	-11%
COc1cc(C=O)ccc1OCc1cn(CC(=O)c2ccc(O)cc2)nn1	-5%	i
Nc1ccc(C(=O)N/N=C/c2cn(Cc3ccccc3)c3ccccc23)cc1	-17%	-15%
CCOC(=O)C1=C(C)NC(C)=C(C(=O)OCC)C1c1cccs1	-12%	-26%
Cc1cccc(-c2nnc(SCc3cc(=O)[nH]c4ccccc34)n2C)c1	-16%	-24%
CCCCOC(=O)/C(=C/C=C/c1ccccc1)NC(=O)c1ccccc1	-6%	-12%
O=C(CSc1n[nH]c(=O)n1Cc1ccco1)Nc1ccccc1Cl	-6%	i
CCOC(=O)c1oc2nc(CC(C)C)c3c(c2c1N)CCCC3	-25%	?
Cc1cnn(Cc2cccnc2)c1N	-10%	i
CCOc1ccc(Nc2cc(C)c(C#N)c3nc4ccccc4n23)cc1	-9%	0%
COc1ccc(OC)c(NC(=O)N2CCC3(CC2)Oc2ccccc2C(=O)N3Cc2ccccc2F)c1	-23%	-21%
CCOc1ccccc1NC(=O)COC(=O)COc1c(Cl)cc(Cl)c2ccc(C)nc12	-9%	6%
COc1ccc(-c2cc(-c3n[nH]c(=S)n3-c3ccccc3Cl)[nH]n2)cc1	-16%	i
CC(C)(C)c1ccc(C(=O)NNC(=O)Cc2ccccc2)cc1	-9%	i
Nc1nc(-c2ccc([N+](=O)[O-])cc2)cs1	-11%	-13%
Cc1ccc(NC(=O)CSc2nc(N)cc(=O)[nH]2)cc1Cl	1%	-3%
CC(=O)Nc1ccc(NC(=O)c2ccc3c(c2)CCN3S(=O)(=O)c2ccc(C)cc2)cc1	-11%	-24%
COc1cc(Cl)c(S(=O)(=O)NCCN2CCOCC2)cc1Cl	-8%	-18%
Cc1ccc(-c2csc3ncnc(SCC(=O)c4ccc5c(c4)OCCO5)c23)cc1	-6%	-2%
Further records.
SMILES	Vaccinia Venus	Vaccinia mCherry
CC(C)CN1CCC(CNC(=O)CCc2nnc(Cc3c[nH]c4ccccc34)o2)CC1	-12%	?
CCc1ccc([C@@H]2C[C@H]3[C@@H](CN2S(=O)(=O)c2ccc(C)cc2)C(=O)C[C@@H](c2ccccc2F)N3S(=O)(=O)c2ccc(C)cc2)cc1	-20%	-4%
Cc1ccc(S(=O)(=O)c2cnc(SCC(=O)Nc3cccc(Cl)c3)nc2N)cc1C	-9%	-13%
O=C(Nc1ccc(O)c(C(=O)O)c1)Oc1ccccc1	-8%	i
Cc1ccc(N=Cc2c(O)cc(C)oc2=O)c(C)c1	-6%	3%
Cc1ccc(CC(=O)NNC(=O)c2ccncc2)cc1C	-9%	-11%
O=C(CSc1nc(=O)n2ccccc2n1)N1CCCc2ccccc21	-9%	i
Cc1ccc(-c2nnc(Nc3ccc(OCC(N)=O)cc3)c3ccccc23)cc1S(N)(=O)=O	-6%	-10%
COc1cc(Cl)ccc1NC(=S)N(CCCN1CCOCC1)Cc1cn(C)c2ccccc12	-17%	?
CC(C)NC(=O)CN1CCN(Cc2nc(C(c3ccccc3)c3ccccc3)no2)CC1	-7%	-6%

Four entries from above in a different format.
> Cc1ccc(S(=O)(=O)c2cnc(SCC(=O)Nc3cccc(Cl)c3)nc2N)cc1C
  Vaccinia Venus: -9%
  Vaccinia mCherry: -13%
> O=C(Nc1ccc(O)c(C(=O)O)c1)Oc1ccccc1
  Vaccinia Venus: -8%
  Vaccinia mCherry: i
> Cc1ccc(N=Cc2c(O)cc(C)oc2=O)c(C)c1
  Vaccinia Venus: -6%
  Vaccinia mCherry: 3%
> Cc1ccc(CC(=O)NNC(=O)c2ccncc2)cc1C
  Vaccinia Venus: -9%
  Vaccinia mCherry: -11%
